High-throughput results (PubChem)
SARS PLpro yeast – inhibitors of SARS-CoV papain-like protease in yeast. Potency, µM (doses to about 32.9 µM), for inactives: at the top dose activity, positive = growth rescue. S. cerevisiae expressing SARS-CoV PLpro, growth rescue; control for the full effect not named in the record. AID 485353. actives 0.19% (n = 330,000); active means well fitted rising curve with a large enough effect; inconclusive means small, poorly fitted or top-dose-only effect; inactive means no such curve, though single readings can be large or run the other way; note: 0% is about no effect; nearly all actives have a fitted effect of over 55% in size; growth read by luminescence after 48 h
RE007 growth inh – less growth of the S. pombe RE007 Vpr strain | Potency, µM (titrated, usually from 92.2 µM), inactives show at the top dose activity change, negative = less growth | AID 651644 | actives 0.21% (n = 360,000) | S. pombe RE007 Vpr strain, BacTiter-Glo ATP luminescence, 24 h; control for the full effect not named in the record; active = well fitted falling curve with a large enough effect; inconclusive = small, poorly fitted or top-dose-only effect; inactive = no such curve, though single readings can be large or run the other way;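 note: % is set by controls: 0 for no effect and ±100 for the full control effect; nearly all actives have a fitted effect of over 50% in size; the assay follows cell death caused by Vpr and the record does not say whether a fall means rescue or toxicity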
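Fission yeast strain RE007, carrying one chromosomally integrated HIV-1 vpr copy, was seeded at OD 0.01 in PMG+AL medium with 23 nL pinned compound. After 24 h at 30 °C and 99% humidity, viability was read by BacTiter-Glo luminescence.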
StopGo reporter – FMDV 2A StopGo reporter, luciferase signal | human cells with a luciferase reporter of 2A StopGo recoding; control for the full effect not named in the record | Potency, µM (highest dose often 57.9 µM), inactives show at the highest dose signal change, negative = less light | actives 1.2% (n = 410,000) | AID 1159524; active = well fitted falling curve with a large enough effect; inconclusive = small, poorly fitted or top-dose-only effect; inactive = no such curve, though single readings can be large or run the other way; tested in HEK293T cells; note: % is set by controls: 0 for no effect and ±100 for the full control effect; nearly all actives have a fitted effect of over 45% in size; luciferase light after 4 h
The depositor's hits bear a star; [ ] = another dose, or the depositor's remark. Potency is the fitted concentration of half-maximal effect. An excerpt; count on the stated rates, not on these rows.

Start of the data: the first three records, to show the layout:
What do the screens show for `Cc1ccc(NC(=O)C2CCCC2)cc1S(=O)(=O)N1CCOCC1`?
SARS PLpro yeast: 0%; RE007 growth inh: -6%; StopGo reporter: -1%

What do the screens show for `O=C(CCNS(=O)(=O)c1ccccc1Cl)OCc1nnc(-c2ccccc2Cl)o1`?
SARS PLpro yeast: 11%; RE007 growth inh: -15%; StopGo reporter: -6%

Results for COc1ccc(N2CCN(C(=S)NCc3ccc(C)cc3)CC2)cc1 ?
SARS PLpro yeast: 0%; RE007 growth inh: 0%; StopGo reporter: -5%

Results, repeating the preview:
What do the screens show for `Cc1ccc(NC(=O)C2CCCC2)cc1S(=O)(=O)N1CCOCC1`?
SARS PLpro yeast: 0%; RE007 growth inh: -6%; StopGo reporter: -1%

What do the screens show for `O=C(CCNS(=O)(=O)c1ccccc1Cl)OCc1nnc(-c2ccccc2Cl)o1`?
SARS PLpro yeast: 11%; RE007 growth inh: -15%; StopGo reporter: -6%

Results for COc1ccc(N2CCN(C(=S)NCc3ccc(C)cc3)CC2)cc1 ?
SARS PLpro yeast: 0%; RE007 growth inh: 0%; StopGo reporter: -5%

What do the screens show for `O=C(CN1C(=O)NC(CCc2ccccc2)C1=O)Nc1ccccc1C(F)(F)F` (stereo not given)?
SARS PLpro yeast: -1%; RE007 growth inh: -19%; StopGo reporter: -13%

How did CC(=O)Nc1ccc(C(=O)OCC(=O)Nc2c(C)n(C)n(-c3ccccc3)c2=O)cc1 do in these assays?
SARS PLpro yeast: 6%; RE007 growth inh: 5%; StopGo reporter: -15%

What do the screens show for `Cc1c(C(=O)NNC(=O)c2cccnc2)cccc1[N+](=O)[O-]`?
SARS PLpro yeast: -1%; RE007 growth inh: 31%; StopGo reporter: -15%

Results for CCCNC(=O)C(Cc1cccc(Br)c1)NC(=O)c1ccc(C#N)cc1 (stereo not given) ?
SARS PLpro yeast: 1%; RE007 growth inh: -13%; StopGo reporter: -12%

Results for Cc1c(C(=O)N2CCOCC2)oc2ccccc12 ?
SARS PLpro yeast: -3%; RE007 growth inh: -3%; StopGo reporter: -4%

How did c1ccc(COc2ccc3nocc3c2)cc1 do in these assays?
SARS PLpro yeast: 4%; RE007 growth inh: -15%; StopGo reporter: 29%

How did C[C@H](CO)N1C[C@H](C)[C@@H](CN(C)C(=O)Nc2ccccc2)Oc2ccc(NC(=O)C3CC3)cc2C1=O do in these assays?
SARS PLpro yeast: -4%; RE007 growth inh: 2%; StopGo reporter: 36%[activator]

What do the screens show for `O=C(CC1C[C@H](C(=O)N2CCOCC2)[C@@]2(CCC3CCCC3)c3[nH]c4ccccc4c3CCN2C1=O)NCCC1=CCCCC1` (stereo not given in full)?
SARS PLpro yeast: 1%; RE007 growth inh: -6%; StopGo reporter: -8%

Results for CN(Cc1ccccc1)C(=O)c1ccc(NC(=O)Cc2ccc([N+](=O)[O-])cc2)cc1 ?
SARS PLpro yeast: 0%; RE007 growth inh: -17%; StopGo reporter: -7%

Results for O=[N+]([O-])c1cccc(-c2c(-c3ccccc3)ncc3cc(F)ccc23)c1 ?
SARS PLpro yeast: 3%; RE007 growth inh: -5%; StopGo reporter: 3%

How did CCCCCCCC1c2c(c(C)c(C)oc2=O)Oc2c(C)c(C)oc(=O)c21 do in these assays?
SARS PLpro yeast: 2%; RE007 growth inh: 1%; StopGo reporter: 29%

How did COc1ccc(NS(=O)(=O)c2ccc(C(=O)N(C)Cc3ccc(C)o3)cc2)cc1 do in these assays?
SARS PLpro yeast: 3%; RE007 growth inh: 0%; StopGo reporter: inconclusive

What do the screens show for `O=C(COc1ccc(Br)cc1)Nc1nnc(C2CC2)s1`?
SARS PLpro yeast: -4%; RE007 growth inh: -3%; StopGo reporter: 14%

How did Cc1ccnn1-c1ccc(C(=O)NCC(c2ccco2)N2CCCC2)cc1 (stereo not given) do in these assays?
SARS PLpro yeast: 9%; RE007 growth inh: -11%; StopGo reporter: -23%

How did Cc1ccc(-n2ccnc2SCC(=O)c2c(N)n(C3CC3)c(=O)[nH]c2=O)cc1C do in these assays?
SARS PLpro yeast: 0%; RE007 growth inh: -15%; StopGo reporter: -11%

How did COc1ccc(S(=O)(=O)N2CCOCC2)cc1NC(=O)c1sccc1C do in these assays?
SARS PLpro yeast: -18%; RE007 growth inh: -18%; StopGo reporter: 9%

Results for COC(=O)[C@]1(C)N[C@H](CN(C)S(=O)(=O)c2ccc(C)cc2)[C@@H]2C(=O)N(C)C(=O)[C@@H]21 ?
SARS PLpro yeast: -4%; RE007 growth inh: 22%; StopGo reporter: -19%

How did Nc1c(-c2ccccc2)cnc2cc(-c3ccccc3)nn12 do in these assays?
SARS PLpro yeast: -5%; RE007 growth inh: -15%; StopGo reporter: 4%

Results for CCOC(=O)C1=CC[C@H]2c3c(c4ccccc4n3C)C(=O)C1N2S(=O)(=O)c1ccc(C)cc1 ?
SARS PLpro yeast: -5%; RE007 growth inh: 3%; StopGo reporter: 48%[activator]

Results for CCCOc1ccc(N2C(=O)CC(SC(=N)N3N=C(c4ccccc4)CC3c3ccccc3)C2=O)cc1 (stereo not given) ?
SARS PLpro yeast: 3%; RE007 growth inh: 1%; StopGo reporter: -17%

What do the screens show for `O=C(Cc1cccc(C(F)(F)F)c1)N1CCN(CC(=O)N2CCCC2)CC1`?
SARS PLpro yeast: 8%; RE007 growth inh: 3%; StopGo reporter: -15%

What do the screens show for `O=C(Nc1ccc(Cl)c(S(=O)(=O)N2CCOCC2)c1)c1cc(=O)[nH]c2ccccc12`?
SARS PLpro yeast: 0%; RE007 growth inh: 3%; StopGo reporter: -2%

Results for CCC(NS(=O)(=O)c1cccs1)c1ccc(C)cc1 (stereo not given) ?
SARS PLpro yeast: 8%; RE007 growth inh: 5%; StopGo reporter: 1%

Results for CC1(O)CCN2C(=O)CCc3cccc1c32 (stereo not given) ?
SARS PLpro yeast: -4%; RE007 growth inh: -27%; StopGo reporter: -18%

How did Cc1noc(C)c1COc1ccccc1C(=O)N1CCN(c2cccc(Cl)c2)CC1 do in these assays?
SARS PLpro yeast: -7%; RE007 growth inh: -14%; StopGo reporter: -22%

What do the screens show for `COc1cc(C(=O)OCC(=O)NCCN2C(=O)CSC2=O)ccc1OCc1c(C)noc1C`?
SARS PLpro yeast: -4%; RE007 growth inh: 2%; StopGo reporter: -18%

Results for COC(=O)C1=C(c2ccc3ccccc3c2)C[C@@H]2CC[C@H]1N2C(=O)N1CCC(O)CC1 ?
SARS PLpro yeast: -9%; RE007 growth inh: 3%; StopGo reporter: inconclusive

Results for Cc1cccc([N+](=O)[O-])c1NC(=O)COC(=O)c1nc2nccc(C)n2n1 ?
SARS PLpro yeast: -3%; RE007 growth inh: 65%; StopGo reporter: -9%

How did CCOC(=O)c1ccc(S(=O)(=O)NC2CCC(C)CC2)cc1 (stereo not given) do in these assays?
SARS PLpro yeast: -3%; RE007 growth inh: -7%; StopGo reporter: 27%

What do the screens show for `CCOC(=O)C1=C(COC(=O)/C=C/c2ccccc2F)NC(=O)NC1C` (stereo not given)?
SARS PLpro yeast: -3%; RE007 growth inh: -15%; StopGo reporter: -13%

How did CC(NC(=O)C1CCCN(C(=O)c2ccc(Cl)cc2)C1)c1cccc(C(F)(F)F)c1 (stereo not given) do in these assays?
SARS PLpro yeast: 3%; RE007 growth inh: -1%; StopGo reporter: inconclusive

What do the screens show for `CCN(CC(=O)NCc1cccs1)C(=O)CCCOc1ccccc1`?
SARS PLpro yeast: 1%; RE007 growth inh: 2%; StopGo reporter: 15%

What do the screens show for `Cc1cc(C(=O)CCC(=O)NCC(=O)Nc2c(C)cccc2C)c(C)s1`?
SARS PLpro yeast: 2%; RE007 growth inh: -27%; StopGo reporter: -8%

What do the screens show for `Cc1cc(C)c(NC(=O)CN(C)CC(=O)Nc2cccc(S(=O)(=O)N(C)c3ccccc3)c2)c(C)c1`?
SARS PLpro yeast: 0%; RE007 growth inh: 4%; StopGo reporter: inconclusive

Results for Nc1cc(=O)[nH]c(SCC(=O)N2CCC(Cc3ccccc3)CC2)n1 ?
SARS PLpro yeast: 0%; RE007 growth inh: -10%; StopGo reporter: -21%

Results for COc1cccc(NC(=O)COC(=O)C2CC2)c1 ?
SARS PLpro yeast: -2%; RE007 growth inh: 11%; StopGo reporter: 42%[activator]

Results for O=C(COC(=O)c1cccc(O)c1)Nc1ccc(N2CCOCC2)cc1 ?
SARS PLpro yeast: 2%; RE007 growth inh: 3%; StopGo reporter: 2%

Results for COc1cc(OC)cc(-c2oc(=O)c3cc(OC)c(OC)cc3c2/C=C/c2ccc(F)cc2)c1 ?
SARS PLpro yeast: -2%; RE007 growth inh: 1%; StopGo reporter: -19%

What do the screens show for `O=C(CN1C(=O)CCC1=O)Nc1nc(-c2ccc3ccccc3c2)cs1`?
SARS PLpro yeast: 1%; RE007 growth inh: 5%; StopGo reporter: 44%[activator]

Results for CC1(C)CC(NC(=S)NC(=O)c2cc(Br)ccc2Cl)CC(C)(C)N1 ?
SARS PLpro yeast: 4%; RE007 growth inh: -5%; StopGo reporter: -18%

What do the screens show for `Cc1ccc(OCC(=O)NNC(=O)C2CCC2)cc1C`?
SARS PLpro yeast: -21%; RE007 growth inh: 4%; StopGo reporter: -29%

What do the screens show for `CC1(C2CC2)NC(=O)N(CC(=O)Nc2ccccc2-c2ccccc2)C1=O` (stereo not given)?
SARS PLpro yeast: -2%; RE007 growth inh: -8%; StopGo reporter: 7%

What do the screens show for `CCCC(NC(=O)c1ccc(Br)o1)c1nc2ccccc2[nH]1` (stereo not given)?
SARS PLpro yeast: -5%; RE007 growth inh: -9%; StopGo reporter: -8%

Results for CCCCCCSc1ccc([C@H]2N[C@@](Cc3ccccc3)(C(=O)OC)[C@H]3C(=O)N(C)C(=O)[C@@H]23)cc1OC ?
SARS PLpro yeast: -2%; RE007 growth inh: -9%; StopGo reporter: 9%

What do the screens show for `Nc1c(C(=O)CSc2nnc(COc3ccc(Cl)cc3)o2)c(=O)[nH]c(=O)n1C1CC1`?
SARS PLpro yeast: -4%; RE007 growth inh: -4%; StopGo reporter: inconclusive

Results for Cc1ccc(OCC(=O)N2CCCCC2C)c([N+](=O)[O-])n1 (stereo not given) ?
SARS PLpro yeast: 2%; RE007 growth inh: -1%; StopGo reporter: -7%

How did O=C(CN(Cc1ccco1)C(=O)c1ccc(F)cc1F)Nc1ccccc1C(F)(F)F do in these assays?
SARS PLpro yeast: -1%; RE007 growth inh: -5%; StopGo reporter: -9%

How did CCOC(=O)C1=CN(CC)S(=O)(=O)NC1CC (stereo not given) do in these assays?
SARS PLpro yeast: 9%; RE007 growth inh: 10%; StopGo reporter: -10%

How did COc1ccc(C2(c3ccc(OC)cc3)NC(=O)N(CC(=O)NCC(C)c3ccccc3)C2=O)cc1 (stereo not given) do in these assays?
SARS PLpro yeast: 1%; RE007 growth inh: 31%; StopGo reporter: -28%

Results for COc1ccc(C(=O)O)cc1S(=O)(=O)Nc1ccc(Oc2ccccc2)cc1 ?
SARS PLpro yeast: 8%; RE007 growth inh: 8%; StopGo reporter: -1%

Results for COc1ccccc1OCC(=O)Nc1sc2c(c1C(N)=O)CCC2 ?
SARS PLpro yeast: -2%; RE007 growth inh: -6%; StopGo reporter: -1%

What do the screens show for `COc1cc(NC(=O)c2cnn3c(C(F)F)cc(C4CC4)nc23)c(OC)cc1Cl`?
SARS PLpro yeast: 1%; RE007 growth inh: 0%; StopGo reporter: -6%

What do the screens show for `COC(=O)C1=C(c2cccc(OCc3ccccc3)c2)C[C@@H]2CC[C@H]1N2C(=O)NCc1cc(C)oc1C(F)(F)F`?
SARS PLpro yeast: 0%; RE007 growth inh: 1%; StopGo reporter: -15%

Results for COc1ccc(OC)c(/C=N/c2c(-c3ccc(O)c(OC)c3)nc3ccccn23)c1 ?
SARS PLpro yeast: -2%; RE007 growth inh: -8%; StopGo reporter: -1%

What do the screens show for `CCOC(=O)c1c(C)[nH]c(C(=O)OCC(=O)Nc2ccccc2)c1C`?
SARS PLpro yeast: -4%; RE007 growth inh: 5%; StopGo reporter: -22%

What do the screens show for `CCc1ccc2c(COC(=O)C3CSC4(C)CCC(=O)N34)cc(=O)oc2c1` (stereo not given)?
SARS PLpro yeast: -4%; RE007 growth inh: -21%; StopGo reporter: 20%

What do the screens show for `O=C(Nc1ncccn1)c1ccc([N+](=O)[O-])cc1`?
SARS PLpro yeast: -1%; RE007 growth inh: 10%; StopGo reporter: -1%

Results for CCOc1ccc2oc(C(=O)N(C)CCc3ccc(OC)c(OC)c3)c(C)c2c1 ?
SARS PLpro yeast: 7%; RE007 growth inh: 1%; StopGo reporter: -12%

Results for COC(=O)[C@@]1(C)[C@H]2C(=O)N(C)C(=O)[C@H]2[C@H]2CN=C(SC)N21 ?
SARS PLpro yeast: 14%; RE007 growth inh: 12%; StopGo reporter: -6%

Results for O=C(NCCCN1CCCC1=O)C1CCN(S(=O)(=O)c2ccc(F)cc2)CC1 ?
SARS PLpro yeast: -8%; RE007 growth inh: 17%; StopGo reporter: -7%
